GIRK2 act = GIRK2 channel activation | P48051 | HEK293-GIRK2 thallium flux, Thallos fluorescence | calls only for hits at 25 µM | hit rate 0.05% among 63,000;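 active = among the strongest 0.2% of first-round signals and kept after retests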;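 note: first round at about 10 µM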
Target sequence (P48051 whole entry, looked up): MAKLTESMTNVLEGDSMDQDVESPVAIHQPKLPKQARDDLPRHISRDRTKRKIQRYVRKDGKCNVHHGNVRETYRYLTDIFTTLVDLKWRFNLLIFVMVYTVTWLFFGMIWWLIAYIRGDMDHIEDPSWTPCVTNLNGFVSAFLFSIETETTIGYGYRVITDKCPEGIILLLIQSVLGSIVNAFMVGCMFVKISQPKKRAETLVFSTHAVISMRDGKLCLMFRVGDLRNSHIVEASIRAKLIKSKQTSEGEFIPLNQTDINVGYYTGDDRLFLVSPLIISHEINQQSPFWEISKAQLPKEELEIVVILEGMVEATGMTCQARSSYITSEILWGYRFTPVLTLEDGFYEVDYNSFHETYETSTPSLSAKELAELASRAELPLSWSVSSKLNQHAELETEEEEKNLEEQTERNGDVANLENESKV
Calls only; i = inactive. This is a subset; rates above refer to the full screens.

structure | GIRK2 act
C=CCNc1nc2c(c(=O)[nH]c(=O)n2C)n1CCc1ccccc1 | i
O=C(CN1CCN(c2ccc3c(c2)OCO3)C1=O)Nc1ccc(F)c(Cl)c1 | i
COc1ccc(C(=O)C(C)OC(=O)CCc2c[nH]c3ccccc23)cc1 (centres undefined) | i
CCSc1ccccc1C(=O)NCC1CCN(C(=O)Oc2ccccc2)CC1 | i
CC(=O)N(CCN(C)C)c1nc2c(C)cc(Cl)cc2s1 | i
O=C(C1COc2ccccc2O1)N1CCC(Oc2nc3ccccc3s2)CC1 (centres undefined) | i
COc1ccc(-c2[nH]ncc2-c2nc(-c3ccc(Br)cc3)no2)cc1OC | i
CC(C)C(=O)N1CCCC(c2nnc(-c3cccs3)o2)C1 (centres undefined) | i

Following part:
structure | GIRK2 act
CCc1c(OCCCCCC(C)(C)c2nn[nH]n2)cc(O)cc1C(C)=O | i
COC(=O)c1sccc1S(=O)(=O)N(CC(=O)Nc1ccc(C)c(C)c1)c1ccc(C)c(C)c1 | i
CC(=O)N1CCC(CSc2nccn2C)CC1 | i
O=C(NCC1CCS(=O)(=O)C1)c1ccccc1Oc1ccccc1 (centres undefined) | i
CN1C(=O)CCc2cc(NC(=O)CSC3CCCC3)ccc21 | i
COc1ccc(-c2nn3c(COc4cccc(C)c4)nnc3s2)cc1 | i
COc1ccc(-c2coc3c4c(ccc3c2=O)OCN(C2CCCCC2)C4)cc1OC | i
Cc1ccc(C)c(S(=O)(=O)N2CCC(COCc3ccccc3)CC2)c1 | i

Next section:
structure | GIRK2 act
Cn1c(C2CCC(CNC(=O)c3ccc(Br)o3)CC2)nc2ccccc21 (centres undefined) | i
O=C(NCCc1ccccc1)c1sccc1S(=O)(=O)N1CCN(c2ccccc2)CC1 | i
Cc1csc(C(=O)N2C3CCC2COC3)c1 | i
O=C(Cn1c(=O)[nH]c2c(-c3ccccc3F)c[nH]c2c1=O)N1CCN(c2ccc(F)cc2)CC1 | i
O=C(Nc1ccc2c(c1)OCCO2)c1ccc(CNS(=O)(=O)c2cccc(Cl)c2)cc1 | i
CCCCC(CC)CNC(=O)CCCn1c(=S)[nH]c2cc3c(cc2c1=O)OCO3 (centres undefined) | i
O=C(Nc1ccccn1)c1ccc(S(=O)(=O)N(Cc2ccco2)C2CC2)o1 | i
COc1ccc(C(=O)NCCc2ccccc2OC)nn1 | i

(next part)
structure | GIRK2 act
CCN(C(=O)Cn1ccn2nc(-c3ccc(Cl)cc3)cc2c1=O)c1cccc(C)c1 | i
CCC(C(=O)Nc1ccc(-n2nnn(CCOC)c2=O)cc1)c1ccccc1 (centres undefined) | i
CCOc1ccc(NC(=O)Cn2ccn(-c3ccc(F)c(F)c3)c(=O)c2=O)cc1 | i
O=C(/C=C/c1ccccc1)Nc1cnc(Oc2ccccc2F)nc1 | i
COc1ccc(CNC(=O)CSc2nccn3nc(-c4ccc(Cl)cc4)cc23)cc1 | i
COc1ccc(NC(=O)Cn2nc3ccc(SC(C)C)nn3c2=O)cc1OC | i
COc1ccc(C)cc1S(=O)(=O)Nc1ccc2c(c1)CCC(=O)N2 | i
Cn1ccnc1SCC1CCN(C(=O)CSc2ccc(F)cc2)CC1 | i

The list goes on:
structure | GIRK2 act
O=C(c1nc2ccccc2s1)N(CCc1cccs1)Cc1ccco1 | i
Cn1nc(CNC(=O)CC2CCCC2)cc1-c1ccccn1 | i
CN(C)C(CNC(=O)C(=O)Nc1ccccc1Cl)c1ccc2c(c1)CCO2 (centres undefined) | i
COC(=O)c1ccc(NC(=O)CN2CCC(c3nc(-c4cccs4)no3)CC2)cc1 | i
CCCS(=O)(=O)N1CCc2ccc(NC(=O)Nc3ccccc3C(F)(F)F)cc2C1 | i
Cc1cn2c3c(=O)n(Cc4ccccc4F)c(=O)n(C)c3nc2n1-c1ccc(S(N)(=O)=O)cc1 | i
O=C(Cn1c(=O)oc2ccccc21)N1CCCC(c2nnc(-c3cccs3)o2)C1 (centres undefined) | i
Cc1noc(C)c1CC(=O)N1CC(c2nc(-c3ccccc3)no2)C1 | i

Further entries:
structure | GIRK2 act
Cc1ccc2c(Nc3cccc(C(F)(F)F)c3)c(C(=O)N3CCOCC3)cnc2n1 | i
COc1ccc(C(=O)Nc2ccccc2-c2nnc(SC)o2)cc1OC | i
O=C(c1csc(-c2cc3ccccc3[nH]2)n1)N1CCc2ccccc21 | i
CSc1cccc2sc(N3CCN(C(=O)c4ccccc4)CC3)nc12 | i
Cc1cn2c3c(=O)[nH]c(=O)n(C)c3nc2n1CCN1CC(C)OC(C)C1 (centres undefined) | i
CN(c1ccsc1C(=O)NCc1ccc(Cl)cc1)S(=O)(=O)c1ccccc1 | i
O=C(c1ccc2c(c1)OCO2)N1CCC(c2nnc(C3CC3)s2)CC1 | i
CC1CN(C2CCCCC2)c2nc3c(c(=O)n(CC(=O)c4ccccc4)c(=O)n3C)n2C1 (centres undefined) | i

Next entries:
structure | GIRK2 act
O=C(CSc1ncnc2nc[nH]c12)N1c2ccccc2Sc2ccccc21 | i
COC(=O)c1sccc1S(=O)(=O)N(CC(=O)Nc1ccc(F)cc1)c1ccc(C)c(C)c1 | i
CS(=O)(=O)C1CCN(S(=O)(=O)c2ccc(OC(F)(F)F)cc2)CC1 | i
O=C(NCC1CCCO1)c1ccc(-n2nc(C(F)(F)F)cc2-c2cccs2)cc1 (centres undefined) | i
COC(=O)c1ccc(NC(=O)CSc2nnc3ccc(C(=O)Nc4cccc(F)c4)cn23)cc1 | i
CCN(CC)C(=O)c1cnc2nc(C)ccc2c1Nc1ccc(OC)c(OC)c1 | i
O=C(/C=C/c1cccs1)N(CCCn1ccnc1)c1nc2ccc(Cl)cc2s1 | i
COc1cc(/C=C2\Oc3c(ccc(OCC(=O)OC(C)C)c3C)C2=O)cc(OC)c1OC | i

More entries
structure | GIRK2 act
Cn1c(=O)c2c(nc(SCC(O)CO)n2Cc2ccc(F)cc2)n(C)c1=O (centres undefined) | i
CCOc1ccc(/C=C2\Oc3cc(OC(=O)N4CCOCC4)ccc3C2=O)cc1 | i
COCCCNc1oc(-c2ccc(COc3cccc(C)c3)o2)nc1C#N | i
Cc1noc(C2CN(CC(=O)N3CCC(Cc4ccccc4)CC3)C2)n1 | i
Cc1ccc(-c2ccc3nn(CC(=O)NC4CCCCC4)c(=O)n3n2)cc1C | i
COc1ccc(-c2noc(-c3cc(C)[nH]n3)n2)cc1OC | i
Cc1noc(C)c1CN1CCN(C(=O)C2CCC2)CC1 | i
CC(=O)CN1N=C(c2ccccc2)Cn2c1nc1c2c(=O)n(CC(C)=O)c(=O)n1C | i

3 structures already listed, ordered by formula weight, high to low:
structure | GIRK2 act
CCOc1ccc(/C=C2\Oc3cc(OC(=O)N4CCOCC4)ccc3C2=O)cc1 | i
COCCCNc1oc(-c2ccc(COc3cccc(C)c3)o2)nc1C#N | i
COc1ccc(-c2noc(-c3cc(C)[nH]n3)n2)cc1OC | i

Next part:
structure | GIRK2 act
CC(=O)Nc1nc2c(s1)CN(C(=O)Nc1ccccc1C(F)(F)F)CC2 | i
CCSc1nnc(NC(=O)CN2CCC(c3nnc(C)s3)CC2)s1 | i
Cn1nc(CNC(=O)Nc2cccc(C(F)(F)F)c2)cc1-c1ccncc1 | i
COc1ccc(S(=O)(=O)NC(C)C)cc1N(C)S(=O)(=O)c1ccc(C)cc1 | i
COc1ccc(CNC(=O)Cn2c(C)cc(C)c(S(=O)(=O)c3ccc(C)cc3)c2=O)cc1 | i
O=C(Cn1nc2c(Sc3cccc(F)c3)nccn2c1=O)Nc1ccc(F)c(Cl)c1 | i
COC(=O)c1ccc2c(=O)n(-c3ccccc3)c(N3CCCC3)nc2c1 | i
O=C(Nc1nc(C(=O)NCc2ccccc2Cl)co1)c1ccccc1 | i

(cont.)
structure | GIRK2 act
COc1cccc(-c2cn3c(C(=O)Nc4ncc([N+](=O)[O-])s4)csc3n2)c1 | i
CCOC(=O)CCC(=O)NCC1CCN(c2ccccn2)CC1 | i
COc1ccccc1/C=C/C(=O)c1cc(F)ccc1OC(=O)c1ccco1 | i
O=S(=O)(c1c(F)cccc1F)N1CCC2(CC1)OCCCO2 | i
COc1ccc(S(=O)(=O)N2CCCc3cc(NS(=O)(=O)Cc4ccc(C)cc4)ccc32)cc1 | i
O=C(Cn1nc(C2CC2)n(-c2ccccc2)c1=O)NCc1ccc(F)cc1 | i
Cc1cc(NC(=O)Cc2c(F)cccc2Cl)sn1 | i
Cc1ccc(C)c(NC(=O)Cn2c(N3CCOCC3)nc(C)cc2=O)c1 | i

More results
structure | GIRK2 act
Cn1cc(OCc2ccccc2)c(=O)cc1C(=O)Nc1ccc2c(c1)OCO2 | i
CCOc1ccc(NC(=O)c2n[nH]nc2Nc2ccc(OC)cc2)cc1 | i
O=C(CN1CCN(C(=O)c2cccs2)CC1)c1ccco1 | i
COc1ccc(Cl)cc1C(=O)N1CCC(Oc2ccccn2)CC1 | i
Cc1cn(-c2ccc(SCC(=O)Nc3c(F)cccc3F)nn2)cn1 | i
CCOC(=O)c1c(S(=O)(=O)N2CCN(c3cccc(Cl)c3)CC2)n[nH]c1CC | i
Cc1csc(C(=O)N2CCN(c3ccc(-c4noc(C5CC5)n4)cn3)CC2)c1 | i
COCC(=O)Nc1c2c(nn1CC(=O)NCc1ccccc1)CSC2 | i

Quoted at random: three compounds from above.
structure | GIRK2 act
Cc1cn(-c2ccc(SCC(=O)Nc3c(F)cccc3F)nn2)cn1 | i
O=C(CN1CCN(C(=O)c2cccs2)CC1)c1ccco1 | i
CCOC(=O)c1c(S(=O)(=O)N2CCN(c3cccc(Cl)c3)CC2)n[nH]c1CC | i

Next part
structure | GIRK2 act
CN(c1ccsc1C(=O)NCc1cccc(Cl)c1)S(=O)(=O)c1ccccc1 | i
COc1ccc2cc(CCNC(=O)c3ccc(S(=O)(=O)N4CCOCC4)cc3)c(=O)[nH]c2c1 | i
C=C(C)C(=O)O[C@H]1[C@H]2C(=C)C(=O)O[C@@H]2C[C@@H](C)[C@@H]2O[C@@H]2C(=O)[C@](C)(O)[C@@H]1OC(=O)C(=C)C | i
CC(CCC(O)C(C)(C)O)C1CCC2(C)C3=C(CC(O)C12C)C1(C)CC(OC(=O)CC(C)(O)CC(=O)O)C(O)C(C)(C)C1CC3 (centres undefined) | i
Cc1c(C2=C(c3cn(C)c4ccccc34)C(=O)NC2=O)c2ccccc2n1C | i
COc1ccc(CCNC(=O)c2ccc(OCc3ccc4ccccc4n3)cc2)cc1OC | i
Cc1nc(-c2ccccc2)sc1C(=O)NCCOc1ccc(-c2ccc(F)cc2)nn1 | i
NC(N)=NCCNS(=O)(=O)c1cccc2cnccc12 | i

Next entries.
structure | GIRK2 act
Cc1ccc(NC(=O)c2cccc(N(C)C)c2)cc1NC(=O)c1ccc(O)cc1 | i
Cc1ccc(C(=O)Nc2nn[nH]n2)cc1S(=O)(=O)N1CCCCCC1 | i
N#CSc1ccc(NC(=O)c2ccc(-n3cnnn3)cc2)cc1 | i
CCOC(=O)c1ccc(NC(=O)c2sc3nc(C)ccc3c2N)cc1 | i
CCOC(=O)C(=O)N1CCN(S(=O)(=O)C2CC2)CC1 | i
CN1CCN(S(=O)(=O)c2ccc(NC(=O)COc3ccc(Br)cc3)cc2)CC1 | i
O=C(Nc1ccc(-n2nnc(C(=O)N3CCCC3)n2)cc1)c1ccc(Cl)s1 | i
COc1ccc(-c2coc3c4c(ccc3c2=O)OCN(Cc2ccco2)C4)cc1 | i

Later entries
structure | GIRK2 act
COc1ccc(-c2noc(C3CCN(CC(=O)Nc4cc(C)ccc4OC)CC3)n2)cc1 | i
O=C(NCCCS(=O)(=O)N1CCN(c2ccccn2)CC1)c1cc(=O)c2ccccc2o1 | i
COc1ccc(CNC(=O)Nc2nnc(Cc3ccc(F)cc3)o2)cc1OC | i
COc1cccc(-c2c(NC(=O)c3ccccc3)oc3ccccc3c2=O)c1 | i
Cc1cc2ncn(S(=O)(=O)N3CCCCCC3)c2cc1C | i
O=C(Cn1cc(S(=O)(=O)c2ccccc2)c(=O)c2ccccc21)Nc1ccc(Cl)cc1 | i
COc1cc2oc(C)c(C)c2cc1/C(C)=C/C(=O)Nc1ncn[nH]1 | i
Cc1cccc(CC(=O)Nc2ccc(-n3nnn(CC(=O)N4CCOCC4)c3=O)cc2)c1 | i

A different layout for some results above:
GIRK2 act	compound
i	COc1ccc(NC(=O)Cn2nc3ccc(SC(C)C)nn3c2=O)cc1OC
i	COc1ccc(-c2noc(C3CCN(CC(=O)Nc4cc(C)ccc4OC)CC3)n2)cc1

Carrying on.
structure | GIRK2 act
Cc1ccc(NC(=O)Cn2cnc3c(c2=O)CN(Cc2ccccc2)CC3)cc1 | i
O=C(COc1ccc2c(c1)OCO2)Nc1cc(N2CCN(Cc3ccccc3)CC2)ncn1 | i
O=C(CCC1NC(=O)c2ccccc2NC1=O)Nc1ccc(OC(F)(F)F)cc1 (centres undefined) | i
O=C(CSc1nccn2nc(-c3ccc(Cl)cc3)cc12)NCc1ccccc1 | i
CCc1ccccc1NC(=O)C(c1ccccc1)n1cccc1 (centres undefined) | i
COc1cc(/C=C/c2ccncc2)ccc1OC(=O)c1c(OC)cccc1OC | i
CCOc1ccc(N2CCCn3c2nc2c3c(=O)n(Cc3ccc(C)cc3)c(=O)n2C)cc1 | i
O=C(COc1ccc(F)cc1)NCc1ccc(C(O)c2cccs2)s1 (centres undefined) | i

Next entries follow.
structure | GIRK2 act
CCCCNC(=O)CCn1c(=O)c2ccccc2n(Cc2cccc([N+](=O)[O-])c2)c1=O | i
CN(C)C(CNC(=O)C(=O)NCc1ccc2c(c1)OCO2)c1cn(C)c2ccccc12 (centres undefined) | i
COc1cc(NC(=O)Nc2nc3c(s2)Cc2ccccc2-3)cc(OC)c1OC | i
O=C(CN1CCCN(Cc2ccccc2Cl)S1(=O)=O)NCc1ccc(Cl)cc1 | i
O=C(Nc1ccc(Cl)c([N+](=O)[O-])c1)c1cccc(S(=O)(=O)N2CCOCC2)c1 | i
Cc1ccc(CNC(=O)Cn2c(=O)n(-c3cccc(Cl)c3)c(=O)c3c2c2cc(C)ccc2n3C)cc1 | i
Cc1cc(C(F)(F)F)nc(CCNC(=O)c2c(F)cccc2F)n1 | i

Compound activity (PubChem BioAssay)
